# Source: PubChem
# HPGD block = qHTS Assay for Inhibitors of HPGD (15-Hydroxyprostaglandin Dehydrogenase). 15-hydroxyprostaglandin dehydrogenase [NAD(+)] (Homo sapiens), P15428. purified HPGD, NADH fluorescence kinetic, PGE2 substrate. Potency, µM, for the others: top-dose activity change, negative = inhibition, most hits filed as inhibitors. 150,000 compounds, 4.3% hits. AID 894, 2007; active = well fitted inhibition curve with a large enough effect (not every such curve was filed as active); inconclusive = small, poorly fitted or top-dose-only effect, or another doubt; inactive = no such curve, though single readings can be large or run the other way;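 also: top concentration of the series not given in the record; plate controls included wells without enzyme; inactives centre near -10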
# Target sequence (P15428 whole entry, looked up): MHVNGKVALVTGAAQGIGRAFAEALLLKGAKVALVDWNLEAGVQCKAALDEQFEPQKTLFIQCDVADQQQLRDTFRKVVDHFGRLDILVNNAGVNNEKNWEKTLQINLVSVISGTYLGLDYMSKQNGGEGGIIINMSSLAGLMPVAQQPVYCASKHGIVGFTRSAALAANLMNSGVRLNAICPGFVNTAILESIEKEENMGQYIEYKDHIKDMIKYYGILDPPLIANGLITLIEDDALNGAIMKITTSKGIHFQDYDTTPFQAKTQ
#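 20 nM HPGD preincubated 15 min at room temperature with compound in 50 mM Tris-HCl pH 8, 0.01% Tween 20. Started with 1 mM NAD+ and 30 uM prostaglandin E2; NADH fluorescence (360/450 nm) read 5 times over 30-s intervals, last minus first.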
# Starred values were filed as active, the others as inactive; ? = inconclusive; & = joins results of further samples. % is scaled to controls: 0 for no effect and ±100 for the full control effect; potency is read from the fitted curve at half-maximal effect. Only part of the results is shown; rates above refer to the full screens.
HPGD block	canonical_smiles
-4%	CSc1ccc(/C=C/C(=O)c2ccc(NC(C)=O)cc2)cc1
-7%	CCOC(=O)N1CCN(C(=O)c2ccc(NC(C)=O)cc2)CC1
-9%	O=C(O)[C@@H]1CSC2(CCSC2)N1 (stereo not given in full)
-7%	Fc1ccc(CNCc2ccccc2C(F)(F)F)cc1
-12%	CCC(=O)Nc1ccccc1C(=O)N1CCCC1
-8%	NNC(=O)C1CCCn2c1nc1sc3c(c1c2=O)CCCC3 (stereo not given)
?	COc1ccccc1NC(=O)c1c(NC(=O)c2ccco2)sc2c1CCC2
-6%	CCN(CCCNC(=O)CCNC(=O)Cn1cnc2ccccc2c1=O)c1cccc(C)c1
?	Cc1nn(-c2ccc(F)cc2)c2sc(C(=O)OCC(=O)N3CCC(C)CC3)cc12
-18%	COc1ccccc1Nc1ncc(-c2cccs2)s1
-25%	CC(=O)c1cccc(NS(=O)(=O)c2ccc(N/C=C\C(=O)c3ccc(C)cc3)cc2)c1
-15%	CC(=O)N1c2ccccc2NC2=C(C(=O)CCC2)C1c1cccnc1 (stereo not given)
-1%	C/C=C/c1ccc(OC)c(OC(C)=O)c1
-14%	CC(C)CC(NC(=O)C(NC(=O)OC(C)(C)C)C(C)C)C(=O)NC(CCC(=O)OCc1ccccc1)C(N)=O (stereo not given)
13µM*	Cc1ccc(NC(=O)N2CCC(c3nc4c(nnn4Cc4c(F)cccc4Cl)c(=O)[nH]3)CC2)cc1
-3%	CC(OC(=O)CNC(=O)C12CC3CC(CC(C3)C1)C2)C(=O)Nc1ccc(N2CCOCC2)cc1 (stereo not given)
-9%	CC(C)c1ccc(NC(=O)c2ccc(Br)o2)cc1
-11%	COc1ccc(N2CCN(CCCNS(=O)(=O)c3ccc4c(c3)oc(=O)n4C)CC2)cc1
-7%	COc1ccc(N(Cc2ccccc2)C(=O)c2ccccc2[N+](=O)[O-])cc1
-17%	c1cncc(-c2nc3ccccn3c2Nc2ccc3c(c2)OCCO3)c1
-3%	CCOc1ccc(C(N)=O)cc1OC
-15%	Nc1nc(CN2CCN(c3ccccn3)CC2)nc(Nc2ccc(F)cc2)n1
22µM*	CC1CCCCN1C(=O)CSc1ccc(-c2ccc(F)cc2)nn1 (stereo not given)
0%	CCC(C)(C)NC(=O)C(c1ccco1)N(C(=O)CNC(=O)c1cccs1)c1cccnc1 (stereo not given)
-14%	CCOc1ccc(-c2nnc3sc(COc4ccc(Cl)cc4)nn23)cc1
-6%	N#CCSc1nc2scc(-c3cccs3)c2c(=O)n1CCc1ccccc1
-22%	Cc1ccc(CC2SC(=O)NC2=O)cc1Cl (stereo not given)
-17%	COC(=O)CNC(c1ccccc1)c1cc(C)ccc1NC(=O)c1cccc(Cl)c1 (stereo not given)
-4%	CC(=O)Nc1c2c(nn1-c1cccc(Cl)c1)CS(=O)C2 (stereo not given)
-6%	COC(=O)c1oc2ccc(Cl)cc2c1-n1cccc1
-7%	O=C(NCc1nnc(SCc2ccc(F)cc2)n1-c1ccc(F)cc1)C12CC3CC(CC(C3)C1)C2
-3%&-6%	O=C(O)CCCNC(=O)C(c1ccccc1)c1ccccc1
-19%	Cc1cc(C(=O)OCC(=O)Nc2ccccc2[N+](=O)[O-])c2ccccc2n1
-3%	COC(=O)CCCC1=CC2=CC(=O)C(C)(OC(=O)c3cccs3)C(=O)C2=CN1CCc1c[nH]c2ccccc12 (stereo not given)
?	Cc1cn2c(-c3ccncc3)nnc2s1
-4%	Cc1ccc(CNC(=O)CCn2nc(-c3ccc(Cl)cc3)ccc2=O)cc1
?	Cc1ccc(Nc2nnc(SC/C(O)=C(\C#N)c3nc4ccccc4[nH]3)s2)c(C)c1
-22%	COc1cc2c(cc1NC(=O)CSc1cccc[n+]1[O-])oc1ccccc12
-17%	O=C(CCc1nc(-c2ccccc2F)no1)NC1CCN(Cc2ccccc2)CC1
-15%	CCc1ccc(OCc2ccccc2C(=O)Nc2ccc3nc(C)cc(N)c3c2)cc1
-1%	CCN(CC)S(=O)(=O)c1ccc(N2CCOCC2)c(NC(=O)c2c3c(nc4ccccc24)CCC3)c1
-9%	CCOc1cccc(NC(=O)C(Cc2cccs2)c2nn[nH]n2)c1 (stereo not given)
-11%	CS(=O)(=O)Nc1ccc(S(=O)(=O)N2CCOCC2)cc1
?	COc1[nH]c(/N=C/c2ccccc2)c(C#N)c1C#N
-7%	COc1ccc(CNC(=O)C2CCCN(S(=O)(=O)c3c(C)nn(C)c3C)C2)cc1 (stereo not given)
-27%	CCOc1cc(/C=N/NC(=O)COc2ccc(Cl)cc2)ccc1OS(=O)(=O)c1ccccc1
-16%	CCOC(=O)c1[nH]c2ccccc2c1NC(=S)Nc1cccc(C)c1C
-2%	CCOC(=O)c1cc(-c2ccccc2)n(CCC(=O)NC(C)CC)c1C (stereo not given)
-4%	COc1ccc(N(CC(=O)O)S(=O)(=O)c2c(C)n[nH]c2C)cc1
-4%	CCN(CC)c1ccc(/C=C/C(=O)c2ccc(Br)cc2)cc1
-13%	Fc1ccc(Oc2nccc(-c3ccc(Cl)cc3)n2)cc1
-13%	O=C(O)CN(CCOCCOCCN(CC(=O)O)CC(=O)O)CC(=O)O
-3%	CC(=O)NC(Cc1cnc[nH]1)C(=O)O (stereo not given)
1%	COc1ccccc1N1CCN(C(=O)CCNS(=O)(=O)c2ccc(Br)s2)CC1
-6%	Cc1cc(C)n(-c2ccc(C(=O)OCc3ccccc3)cc2)n1
-10%	Nc1nonc1C(=O)N/N=C/c1cccc([N+](=O)[O-])c1
-19%	COC(=O)C(C)Oc1ccc(=O)[nH]n1 (stereo not given)
6%	Cc1ccc(S(=O)(=O)N2CCN(C(=O)CCN3C(=O)c4ccccc4C3=O)CC2)cc1C
-8%	CC(C)C[C@@H](CC(=O)N[C@@H](CCC(=O)O)CC(=O)O)NC(=O)[C@@H]1CNCC[C@H]1NC(=O)C[C@H](CCCN)NC(=O)C[C@H](CO)NC(=O)[C@@H]1CNCC[C@H]1N
-16%	C/C(=C\c1ccco1)C1C(C#N)=C(N)OC2=C1C(=O)CC(C)(C)C2 (stereo not given)

# Later entries
HPGD block	canonical_smiles
-9%	CCCOc1ccc(C2(C(=O)O)CCCC2)cc1
-7%	COc1ccc(C2CC(c3ccccc3)n3nnnc3N2)cc1 (stereo not given)
0%	O=C(CCN1C(=O)C2C3C=CC(C3)C2C1=O)N1CCN(c2ccc(F)cc2)CC1 (stereo not given)
?	Cc1cc(=O)oc2cc(OCC(=O)OCC(=O)Nc3ccc(C(C)C)cc3)ccc12
-12%	CCS(=O)(=O)NCCc1csc(-c2cccnc2)n1
3%	CN1C(=O)C2(C(C#N)=C(N)N(c3cc(Cl)cc(Cl)c3)C3=C2C(=O)CC(C)(C)C3)c2ccccc21 (stereo not given)
-10%	C=CCn1c(SCc2c(C(=O)OC)sc(N)c2C(=O)OC)nnc1-c1ccc(Cl)cc1
-1%	O=C1Nc2ccccc2N(O)N1c1ccc(S(=O)(=O)N2CCOCC2)cc1
-6%	CCOC(=O)C1CCN(Cc2ccc(O)c(OC)c2)CC1
-4%	CCOC(=O)CSc1nc2ccccc2c(=O)n1CC1CCCO1 (stereo not given)
-19%	Cc1ccc(-c2cc(C(=O)N/N=C/c3c[nH]c4ccccc34)n[nH]2)o1
-17%	CC(C)CN1C(=O)NC(NC(=O)c2cccnc2)(C(F)(F)F)C1=O (stereo not given)
-3%	CC(Oc1ccc(Cl)cc1)c1ccnn1S(=O)(=O)c1ccccc1 (stereo not given)
-8%	CCCCOc1c(Br)cc(/C=N/O)cc1OCC
-13%	CCN(CC)S(=O)(=O)c1ccc(F)cc1
-4%	OCCN(Cc1ccccc1)Cc1ccc(Cl)cc1Cl
?	CNC(=O)c1sc(-c2ccccc2)nc1C
-14%	Cn1ccs/c1=N\S(=O)(=O)c1ccc(F)cc1
?	CCOC(=O)c1sc2nc(CC(=O)OC)nc(NCc3ccc(Cl)cc3)c2c1C
?	CNc1oc(-c2cccs2)nc1C#N
-2%	COc1cc(S(=O)(=O)Nc2ccccc2)ccc1NC=O
-15%	C=C1c2ccccc2NC(=O)N1c1ccc(C)cc1
-7%	CC(C)CCn1nc(C(=O)OC(C)C(=O)NC(N)=O)c2ccccc2c1=O (stereo not given)
-11%	O=C(CNC(=O)c1cccs1)NCC(=O)OCc1ccccc1Cl
28µM*	Cc1ccc(-c2csc3n[nH]c(=S)n23)cc1
0%	CC1CCN(C2(O)C(=O)Nc3ccc([N+](=O)[O-])cc32)CC1 (stereo not given)
0%	CN1CC(=O)N(CC(=O)Nc2ccc(N(C)C)cc2)c2ccccc2C1=O
-15%	O=C(CCCCn1c(=O)c2ccccc2n(CC(=O)NC2CCCC2)c1=O)NCc1ccco1
-5%	CC(=O)NC(=S)Nc1ccc(NC(=O)COc2ccc(Cl)cc2)cc1
-1%	O=C(CCCNC(=O)/C(=C\c1ccc(F)cc1)NC(=O)c1ccccc1)OCc1ccccc1

# In another format: results already given.
> Cc1cc(=O)oc2cc(OCC(=O)OCC(=O)Nc3ccc(C(C)C)cc3)ccc12
- HPGD block = ?

> CCS(=O)(=O)NCCc1csc(-c2cccnc2)n1
- HPGD block = -12%

> CN1C(=O)C2(C(C#N)=C(N)N(c3cc(Cl)cc(Cl)c3)C3=C2C(=O)CC(C)(C)C3)c2ccccc21 (stereo not given)
- HPGD block = 3%

> C=CCn1c(SCc2c(C(=O)OC)sc(N)c2C(=O)OC)nnc1-c1ccc(Cl)cc1
- HPGD block = -10%

# Further results:
HPGD block	canonical_smiles
-23%	O=c1cc(CN2CCN(c3ccccc3F)CC2)c2cc(O)c(-c3ccccc3)cc2o1
-10%	CCOC(=O)C1CCCN(C(=O)c2cc3c(-c4cccc(OC)c4)nn(C)c3s2)C1 (stereo not given)
-3%	COc1cnc(-c2ccccn2)nc1Sc1ccc(Cl)cc1
-5%	Cc1cc(C)nc(/N=C(/NC(=O)c2ccccc2)Nc2ccccc2)n1
-14%	CC(/C=N/NC(=O)c1cc(C(C)C)[nH]n1)=C\c1ccccc1
-7%	COc1ccc(/C(N)=N/OC(=O)c2ccc(C)c([N+](=O)[O-])c2)cc1
-21%	COc1ccc(S(=O)(=O)N(CC(=O)N2CCN(c3ccccc3OC)CC2)c2ccccc2)cc1
-8%	Brc1cccc(-c2nc(-c3ccncc3)no2)c1
-19%	O=C(COC(=O)c1cc([N+](=O)[O-])ccc1NCCO)c1ccccc1
-7%	COC(=O)CC1C(=O)NCCN1C(=O)Nc1ccc(Cl)cc1 (stereo not given)
?	COC(=O)COc1cc(OCC(=O)OC)c2c(C)c(Cl)c(=O)oc2c1
-8%	CCOc1cc(CNCCO)cc(Br)c1OCc1ccc(Cl)cc1
?	CCN(CC)c1ccc2c(C)c(-c3ccc(N)cc3)c(=O)oc2c1
-13%	COCCNC(=O)C1CC(c2ccccc2[N+](=O)[O-])=NO1 (stereo not given)
-6%	Cc1ccc(Oc2cc(NC(=O)CCCn3nc([N+](=O)[O-])cc3C)cc([N+](=O)[O-])c2)cc1
11µM*	COC(=O)c1ccc(/C=N/OCC(=O)NC2CCCC(C)C2C)cc1 (stereo not given)
32µM*	O=C(c1ccco1)N1CCN(c2ncnc3sc4c(c23)CCC4)CC1
-6%	COC(=O)COc1ccc(/C=N/NC(=O)c2ccc(N(Cc3ccccc3)S(C)(=O)=O)cc2)cc1
-1%	Cc1cc(C)c2nc3c(c([C@H](O)C4CCCCN4)c2c1)CC/C3=C/c1ccc(Cl)cc1 (stereo not given in full)
-28%	COc1ccc2c(=O)c3c(=O)n(Cc4ccco4)c(C(C)C)nc3oc2c1
-4%	Cc1cccc(N(CC(=O)N=Nc2c(O)[nH]c3ccccc23)S(C)(=O)=O)c1C
-3%	O=C(O)CCCCCNS(=O)(=O)c1c(Cl)cccc1Cl
-5%	COCCCN1C(=O)c2ccc(C(=O)Nc3ccc(OC)cc3)cc2C1=O
-10%	Cc1cccc(-n2nnnc2SCn2nnc3ccccc3c2=O)c1
16µM*	O=C(NC1CC1)C1CCN(c2ncnc3c2sc2cccc(F)c23)CC1
-7%	CCCc1ccc(C(=O)CCC(=O)O)cc1
-3%	O=C(CSCc1ccccc1Cl)Nc1ccc2c(c1)OCCO2
-9%	CC1CN(C(=O)c2ccn(C)n2)CC(C)O1 (stereo not given)
-7%	CC(=O)n1c2ccccc2c2nc(NC(C)C)sc21
-15%	COc1c(Br)cc(C(N)=O)cc1OCc1ccccc1

# Fetched by structure from the list above (six):
HPGD block	canonical_smiles
-6%	COC(=O)c1oc2ccc(Cl)cc2c1-n1cccc1
-3%	O=C(CSCc1ccccc1Cl)Nc1ccc2c(c1)OCCO2
-4%	CCN(CC)c1ccc(/C=C/C(=O)c2ccc(Br)cc2)cc1
-4%	COc1ccc(N(CC(=O)O)S(=O)(=O)c2c(C)n[nH]c2C)cc1
3%	CN1C(=O)C2(C(C#N)=C(N)N(c3cc(Cl)cc(Cl)c3)C3=C2C(=O)CC(C)(C)C3)c2ccccc21 (stereo not given)
-7%	COc1ccc(N(Cc2ccccc2)C(=O)c2ccccc2[N+](=O)[O-])cc1

# (more compounds)
HPGD block	canonical_smiles
4%	CN(CCCCCNC(=O)/C=N/O)Cc1ccccc1
0%	O=C(CNC(=O)c1ccccc1)NCC(=O)OCc1ccc(Cl)cc1
-13%	CC(C)CNC(=O)COC(=O)c1ccc([N+](=O)[O-])cc1Cl
-8%	Cc1ccc(NCc2nnc(SCC(=O)Nc3cccc(O)c3)n2CC2CCCO2)c(C)c1 (stereo not given)
-8%	Cc1nc(CSc2nc3[nH]ncc3c(=O)n2-c2ccccc2)cs1
